Screening data deposited in PubChem BioAssay by National Center for Advancing Translational Sciences (NCATS).
Cruzain Triton: cruzain (T. cruzi) inhibition with detergent | P25779 | purified cruzain, Z-FR-AMC fluorescence, 0.01% Triton | Potency, µM, inactives show max response, negative = inhibition, actives largely listed as inhibitors | hit rate 0.43% among 200,000 | AID 1478; active means well fitted curve in the direction sought with a large enough effect; inconclusive means small, poorly fitted or top-dose-only effect, or another doubt; inactive means no such curve, though single readings can be large; an effect the other way counts as inactive or inconclusive;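 further: plate controls were neutral wells for no effect and buffer without enzyme for full effect; nearly all actives have a fitted effect of over 40% in size; top concentration of the series not given in the record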
Target sequence (P25779 123-467 limits assumed): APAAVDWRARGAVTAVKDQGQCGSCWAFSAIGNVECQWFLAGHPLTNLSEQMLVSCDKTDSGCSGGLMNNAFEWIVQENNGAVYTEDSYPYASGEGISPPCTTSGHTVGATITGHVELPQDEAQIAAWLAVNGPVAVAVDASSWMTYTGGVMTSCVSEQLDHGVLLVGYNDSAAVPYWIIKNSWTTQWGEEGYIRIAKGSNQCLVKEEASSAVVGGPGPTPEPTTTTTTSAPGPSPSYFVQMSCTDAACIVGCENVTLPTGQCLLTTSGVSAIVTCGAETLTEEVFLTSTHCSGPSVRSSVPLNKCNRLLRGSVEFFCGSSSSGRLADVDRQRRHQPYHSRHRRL
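In this qHTS format, compounds are incubated with 1.5 nM cruzain for 15 min at room temperature before 2 uM Z-FR-AMC is added. Release of AMC is followed at 360/450 nm, and progress is taken as the 60 s fluorescence difference.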
LASV entry inh: Lassa virus entry inhibition; hit rate 1.2% among 300,000; AID 540256; Lassa virus pseudotype entry inhibition, cell reporter; control for the full effect not named in the record; Potency, µM (doses to about 37.9 µM), without a hit: top-dose activity change, negative = inhibition, most hits filed as inhibitors; active means well fitted inhibition curve with a large enough effect; inconclusive means small, poorly fitted or top-dose-only effect, or effect the other way; inactive means flat fitted curve, though single readings scatter; tested in HEK293 cells; further: on the % scale 0 is the no-effect control and ±100 the full control effect; nearly all actives have a fitted effect of over 50% in size; luciferase read-out
RE007 growth inh: less growth of the S. pombe RE007 Vpr strain. hit rate 0.21% among 360,000. S. pombe RE007 Vpr strain, BacTiter-Glo ATP luminescence, 24 h; control for the full effect not named in the record. AID 651644. Potency, µM (top dose mostly 92.2 µM), for inactives: top-dose activity change, negative = less growth; active = well fitted falling curve with a large enough effect; inconclusive = small, poorly fitted or top-dose-only effect; inactive = no such curve, though single readings can be large or run the other way;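 further: on the % scale 0 is the no-effect control and ±100 the full control effect; nearly all actives have a fitted effect of over 50% in size; the assay follows cell death caused by Vpr and the record does not say whether a fall means rescue or toxicity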
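Fission yeast strain RE007, carrying one chromosomally integrated HIV-1 vpr copy, was seeded at OD 0.01 in PMG+AL medium with 23 nL pinned compound. After 24 h at 30 °C and 99% humidity, viability was read by BacTiter-Glo luminescence.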
NS1 function inh: blocks influenza NS1 protein function. S. cerevisiae slowed by influenza A NS1, growth recovery by OD600. AID 2326. Potency, µM (top dose mostly 46.1 µM), inactives show at the top dose activity, positive = more growth. hit rate 0.4% among 270,000; further: actives are rising curves; nearly all actives have a fitted effect of over 50% in size
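Read-out: OD600 growth recovery of NS1-expressing budding yeast. Cells grown overnight at 30C in -URA glucose medium, washed, resuspended and diluted 1:100 in 2% galactose assay medium, pH 6.0. Same strain lacking NS1 served as positive control.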
SARS PLP yeast: inhibitors of SARS-CoV papain-like protease in yeast; hit rate 0.19% among 330,000; Potency, µM (series often up to 32.9 µM), without a hit: at the highest dose activity, positive = growth rescue; S. cerevisiae expressing SARS-CoV PLpro, growth rescue; control for the full effect not named in the record; AID 485353; further: 0% is about no effect; nearly all actives have a fitted effect of over 55% in size; growth read by luminescence after 48 h
Marburg entry inh: inhibitors of Marburg virus binding or cell entry. Marburg virus pseudotyped entry inhibition, cell reporter; control for the full effect not named in the record; about a third of the inactives were read at about 46 µM. Potency, µM (series often up to 37.8 µM), without a hit: at the top dose activity change, negative = inhibition, most hits filed as inhibitors. hit rate 1.8% among 300,000; active = well fitted inhibition curve with a large enough effect; inconclusive = small, poorly fitted or top-dose-only effect, or effect the other way; inactive = flat fitted curve, though single readings scatter; tested in HEK293 cells; about a fifth of its hits are not listed in these tables; further: on the % scale 0 is the no-effect control and ±100 the full control effect; luciferase read-out
Cruzain noTriton: cruzain (T. cruzi) inhibition without detergent; P25779; purified cruzain, Z-FR-AMC fluorescence, no detergent; Potency, µM, without a hit: max response, negative = inhibition, actives largely listed as inhibitors; hit rate 2.3% among 200,000; active means well fitted curve in the direction sought with a large enough effect; inconclusive means small, poorly fitted or top-dose-only effect, or another doubt; inactive means no such curve, though single readings can be large; an effect the other way counts as inactive or inconclusive;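 further: plate controls were enzyme without inhibitor for no effect and buffer without enzyme for full effect; nearly all actives have a fitted effect of over 40% in size; top concentration of the series not given in the record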
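Purified cruzain at 1.5 nM, pre-incubated 15 min with compound at room temperature in 100 mM sodium acetate pH 5.5, 5 mM DTT, 0.00005% Triton X-100. Reaction started with 2 uM Z-FR-AMC; AMC fluorescence increase over 60 s gives rate.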
2A StopGo: lowers the luciferase signal of an FMDV 2A StopGo reporter. AID 1159524. hit rate 1.2% among 410,000. human cells with a luciferase reporter of 2A StopGo recoding; control for the full effect not named in the record. Potency, µM (doses to about 57.9 µM), for inactives: at the highest dose signal change, negative = less light; active = well fitted falling curve with a large enough effect; inconclusive = small, poorly fitted or top-dose-only effect; inactive = no such curve, though single readings can be large or run the other way; tested in HEK293T cells; further: on the % scale 0 is the no-effect control and ±100 the full control effect; nearly all actives have a fitted effect of over 45% in size; luciferase light after 4 h
Starred values were filed as active, the others as inactive; ? = inconclusive; . = not tested or not shown; [ ] = remark or other dose. Unless noted, the call rests on the fitted dose curve; in most records, active means well fitted rising curve with a large enough effect; inconclusive means small, poorly fitted or top-dose-only effect; inactive means no such curve, though single readings can be large or run the other way. Potency means the concentration at half of the fitted maximal effect.

SMILES	Cruzain Triton	LASV entry inh	RE007 growth inh	NS1 function inh	SARS PLP yeast	Marburg entry inh	Cruzain noTriton	2A StopGo
O=C(Cc1cccs1)N1CCN=C1SCc1ccc(F)cc1	.	-15%	4%	.	1%	1%[46.1 µM]	.	-11%
Cc1cc(NC(=O)CSc2c[nH]c3ccccc23)no1	.	?	16%	19%	6%	?	.	9%
CCS(=O)(=O)N1CCc2cc(C(=O)N3CCN(c4ccccc4OC)CC3)ccc21	7.7%	-2%[46.1 µM]	.	.	.	-8%[46.1 µM]	-12%	-13%
Cc1ccc(-n2c(C)nnc2SCC(=O)N2CCc3ccccc3C2)cc1	-0.4%	2%	-26%	-8%	-23%	?	-2%	-15%
CCN(CC)C1CCN(C(=O)c2cc(COc3ccc(F)cc3Cl)on2)C1 (stereo not drawn)	.	.	-17%	4%	-1%	.	.	13%
COc1ccc(-c2nn(CC(=O)NC3CCCC3)c3c2cnc2ccc(F)cc23)cc1	-1.4%	0%[46.1 µM]	.	.	.	.	7%	40%[activator]
O=C(NCc1ccccc1)C(=O)Nc1ccc2nc3n(c(=O)c2c1)CCCCC3	-3.7%	17%[46.1 µM]	.	.	.	?	1%	-1%
CCOC(=O)C1=C(C)N=C2SC(C)C(=O)N2C1/C=C/c1ccccc1OC (stereo not drawn)	0.5%	-7%	1%	7%	18%	-15%	?	2%
CCOC(=O)c1nn(-c2ccccc2Cl)c(=O)cc1OCC(=O)Nc1cccc(OC)c1	.	-1%	-7%	.	0%	-23%	.	-21%
CCOc1ccc(NC(=O)CSc2nc3ccccc3c(=O)n2CCCC(=O)NCC2CCCO2)cc1 (stereo not drawn)	.	?	10%	-5%	1%	19%[46.1 µM]	.	-7%
Cc1cccc(NC(=O)c2ccccc2NC(=O)c2ccco2)c1	.	.	-4%	25%	1%	.	.	5%
Cc1cccc(-n2cnc3cc(C(=O)N4CCc5ccccc54)ccc32)c1	-7.8%	1%	-8%	-32%	-68%	16%	3%	6%
CC(C)(C)c1ccc(C(=O)NCc2nnc(SCC(=O)NCC3CCCO3)o2)cc1 (stereo not drawn)	.	3%	2%	7%	1%	0%	.	-19%
COCCN1C(=O)C(=O)/C(=C(/O)c2ccc(S(=O)(=O)N3CCOCC3)cc2)C1c1ccc(OC)c(OC)c1 (stereo not drawn)	.	16%	-5%	5%	-1%	-1%	.	-16%
O=C(O)/C(=C/c1ccco1)NC(=O)c1ccc(Br)o1	.	-3%	1%	7%	-1%	?	.	-15%

Full records from above. Values in the order: Cruzain Triton, LASV entry inh, RE007 growth inh, NS1 function inh, SARS PLP yeast, Marburg entry inh, Cruzain noTriton, 2A StopGo
Cc1ccc(-n2c(C)nnc2SCC(=O)N2CCc3ccccc3C2)cc1 is listed as -0.4%, 2%, -26%, -8%, -23%, ?, -2%, -15%
COCCN1C(=O)C(=O)/C(=C(/O)c2ccc(S(=O)(=O)N3CCOCC3)cc2)C1c1ccc(OC)c(OC)c1 (stereo not drawn) is listed as ., 16%, -5%, 5%, -1%, -1%, ., -16%
COc1ccc(-c2nn(CC(=O)NC3CCCC3)c3c2cnc2ccc(F)cc23)cc1 is listed as -1.4%, 0%[46.1 µM], ., ., ., ., 7%, 40%[activator]
O=C(O)/C(=C/c1ccco1)NC(=O)c1ccc(Br)o1 is listed as ., -3%, 1%, 7%, -1%, ?, ., -15%
Cc1cccc(-n2cnc3cc(C(=O)N4CCc5ccccc54)ccc32)c1 is listed as -7.8%, 1%, -8%, -32%, -68%, 16%, 3%, 6%

The listing continues:
SMILES	Cruzain Triton	LASV entry inh	RE007 growth inh	NS1 function inh	SARS PLP yeast	Marburg entry inh	Cruzain noTriton	2A StopGo
C[C@@]12CCC=C[C@H]1[C@H](c1ccccc1Br)N(Cc1ccccc1)C2=O	1.7%	.	2%	.	-58%	.	3%	?
Cc1ccccc1CNc1nc(N)n(-c2ccccc2)n1	2.1%	.	0%	-6%	-5%	.	-13%	56%[activator]
CCOc1cc(/C=N\NC(=O)c2ccc(NC(=O)C(C)(C)C)cc2)ccc1OC(=O)c1ccc(C)cc1	-2.6%	?	7%	10%	1%	34%	-7%	-1%
CCOC(=O)CC(NS(=O)(=O)c1ccc(OC)c(C)c1)c1cccc([N+](=O)[O-])c1 (stereo not drawn)	-5.6%	3%	4%	8%	-12%	-15%	-2%	-8%
O=C(Nc1ccc(Cl)cc1)c1ccc2oc(=O)n(Cc3ccccc3)c2c1	-2.4%	?	.	.	.	.	1%	?
Cc1cc(C)n(S(=O)(=O)c2cc(C)c(C)cc2C)n1	1.7%	4%	8%	-5%	-1%	?	-2%	-14%
O=c1c2oc3ccccc3c2n(Cc2ccccc2F)c(=O)n1Cc1ccccc1	0.2%	29%[46.1 µM]	.	.	.	.	13%	-13%
C/C(=N\N=C1/NC(=O)C(C)S1)c1ccc([N+](=O)[O-])cc1 (stereo not drawn)	25µM*	0%	17%	-21%	4%	?	16µM*	-3%
Cc1ccc(S(=O)(=O)N2CCCC2C(=O)NC2CCCCC2)cc1 (stereo not drawn)	-3.5%	-20%	5%	-35%	7%	0%	9%	-27%
COCCn1c(C)cc(O)c(C(c2ccc(C)cc2)N2CCCCC2)c1=O (stereo not drawn)	-0.2%	-21%[46.1 µM]	.	.	.	.	?	-30%
CCOC(=O)N1CCN(C(=O)c2cc3cc(Br)ccc3oc2=O)CC1	-0.7%	.	-5%	2%	-2%	.	-4%	-2%
CCNNC(=O)C(O)(c1cccc(C)c1)c1cccc(C)c1	0.8%	2%	26%	3%	-8%	25%	5%	0%
CCn1ncc([N+](=O)[O-])c1C(=O)Nc1c(C)nn(Cc2ccc(F)cc2)c1C	.	.	7%	5%	2%	.	.	-14%
CN(C(=O)C1CCC(=O)N(Cc2ccccc2F)C1)C1CCOCC1 (stereo not drawn)	.	8%	-10%	18%	14%	?	.	9%
CC(C)CC(=O)NC(=S)Nc1nc(-c2ccccc2)cs1	-11%	12%	-3%	2%	-1%	4%	-14%	0%
COc1cccc(/C=C/C(=O)OCC(=O)N2CCCc3ccccc32)c1	.	-1%	-3%	.	1%	24%	.	25%
O=C(CSc1ncnc2c1cnn2-c1ccc(F)cc1)NCc1ccc2c(c1)OCO2	-1.0%	?	165%	?	-2%	-3%	?	?
CCOC(=O)C(C)(C)n1nnc(-c2ccc([N+](=O)[O-])cc2)n1	.	-10%	0%	3%	1%	?	.	3%
O=c1nccc(N/N=C/c2cccc(O)c2)[nH]1	.	-20%	-9%	2%	0%	?	.	33%[activator]
CCC(=O)NC(=S)Nc1ccc(NC(=O)c2ccco2)c(Cl)c1	.	-2%	-1%	1%	-1%	?	.	30%
Cc1nc(N=C(N)N)nc2c(C)cccc12	.	-78%	-16%	.	4%	?	.	-22%
O=C(c1cccs1)N1CCC(c2nc3c(nnn3Cc3ccccc3Cl)c(=O)[nH]2)CC1	.	7.9µM*	26%	-2%	3%	-7%[46.1 µM]	.	7%
CC(OC(=O)C1CC(=O)N(Cc2ccco2)C1)C(=O)Nc1ccccc1[N+](=O)[O-] (stereo not drawn)	.	14%	17%	.	2%	23%	.	-10%
CCN(CC(=O)NC(=O)NC1CCCCC1)Cc1ccccc1	.	25%[46.1 µM]	2%	.	2%	-3%	.	1%
Cc1cccc(NC(=O)N(Cc2cc3cc(C)cc(C)c3[nH]c2=O)CC2COCCO2)c1 (stereo not drawn)	-0.2%	-21%	-9%	10%	7%	-24%	?	-8%
N/C(Cc1ccc(Cl)cc1Cl)=N\OC(=O)c1ccc(Br)o1	.	9%[46.1 µM]	?	-178%	-30%	2%[46.1 µM]	.	-13%
COc1ccccc1-c1nnc(SCC(=O)NC2CCCCC2)o1	0.3%	0%	7%	0%	-4%	11%	4%	-2%
O=C(CCN1C(=O)[C@@H]2Cc3ccccc3CN2C1=O)N[C@@H](C(=O)O)c1ccccc1	.	.	9%	7%	1%	.	.	-7%
CN(C)C(=O)CCC(=O)N1CCCC(C(=O)c2ccc3c4c(cccc24)CC3)C1 (stereo not drawn)	.	-20%[46.1 µM]	-16%	4%	1%	?	.	-1%
CC1CCC(NC(=O)COC(=O)CSc2ccc(C(N)=O)cc2[N+](=O)[O-])CC1 (stereo not drawn)	.	-2%	-22%	.	3%	-6%	.	-23%
Cc1ccc(S(=O)(=O)N2CCc3ccccc3C2CN2C(=O)c3ccccc3C2=O)cc1 (stereo not drawn)	0.1%	-18%	10%	16%	-6%	-1%	?	-18%
O=C(CN1CCN(Cc2ccccc2Cl)CC1)N=Nc1c(O)[nH]c2ccccc12	-3.6%	?	.	3%	20%	3%	3%	?
Cc1ccc(C(C(=O)NC2CCCC2)N2CCc3ccccc32)cc1 (stereo not drawn)	4.7%	.	-5%	11%	6%	.	-20%	8%
C/C(=N\OCC(=O)Nn1c(C)nc2ccccc2c1=O)c1cccs1	.	.	-2%	-1%	0%	.	.	-16%
O=C(NC1CCCCC1)c1ccc(-c2ccc(Cl)cc2)o1	.	?	-28%	.	-3%	6%[46.1 µM]	.	7%
O=C(Nc1ccccc1)c1ccc(NCC2CCCO2)c([N+](=O)[O-])c1 (stereo not drawn)	-8.9%	22%	-6%	-5%	19%	3%	-6%	20%
O=C(COC(=O)CCc1ccccc1)Nc1ccccc1OC(F)F	.	14%	1%	-7%	-2%	-3%[46.1 µM]	.	-15%
CCCc1nnc(SCC(=O)N2CCOCC2)n1CC1CCCO1 (stereo not drawn)	.	?	2%	.	-4%	1%[46.1 µM]	.	-5%
CCC(C)/C(C)=N/NC(=O)c1ccc(CSc2nc3ccccc3s2)cc1 (stereo not drawn)	-4.2%	?	6%	?	-15%	-10%	2%	-16%
CCOC(=O)CSc1nc(N)c(C#N)cc1C#N	-6.2%	22%	0%	3%	-8%	14%	-14%	32%[activator]

Not a hit list; 4.5% or so of the library scored in one or more.
